NS1 inh: inhibitors of influenza NS1 protein function | S. cerevisiae slowed by influenza A NS1, growth recovery by OD600 | Potency, µM (top dose mostly 46.1 µM), for inactives: top-dose activity, positive = more growth | actives 0.4% (n = 270,000) | AID 2326; active means well fitted rising curve with a large enough effect; inconclusive means small, poorly fitted or top-dose-only effect; inactive means no such curve, though single readings can be large or run the other way; further: nearly all actives have a fitted effect of over 50% in size
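In this qHTS, NS1 from influenza A is expressed in budding yeast, where it slows growth. Cells are switched from glucose to 2% galactose medium (pH 6.0, -URA), treated with compound, and growth recovery is read at OD600.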
SARS PLpro yeast: inhibitors of SARS-CoV papain-like protease in yeast; S. cerevisiae expressing SARS-CoV PLpro, growth rescue; control for the full effect not named in the record; Potency, µM (titrated, usually from 32.9 µM), without a hit: at the highest dose activity, positive = growth rescue; actives 0.19% (n = 330,000); active means well fitted rising curve with a large enough effect; inconclusive means small, poorly fitted or top-dose-only effect; inactive means no such curve, though single readings can be large or run the other way; further: 0% is about no effect; nearly all actives have a fitted effect of over 55% in size; growth read by luminescence after 48 h
StopGo reporter: FMDV 2A StopGo reporter, luciferase signal; human cells with a luciferase reporter of 2A StopGo recoding; control for the full effect not named in the record; Potency, µM (top dose mostly 57.9 µM), for the others: at the highest dose signal change, negative = less light; actives 1.2% (n = 410,000); active = well fitted falling curve with a large enough effect; inconclusive = small, poorly fitted or top-dose-only effect; inactive = no such curve, though single readings can be large or run the other way; tested in HEK293T cells; further: on the % scale 0 is the no-effect control and ±100 the full control effect; nearly all actives have a fitted effect of over 45% in size; luciferase light after 4 h
RE007 growth inh: less growth of the S. pombe RE007 Vpr strain | S. pombe RE007 Vpr strain, BacTiter-Glo ATP luminescence, 24 h; control for the full effect not named in the record | Potency, µM (titrated, usually from 92.2 µM), without a hit: top-dose activity change, negative = less growth | actives 0.21% (n = 360,000) | AID 651644; active = well fitted falling curve with a large enough effect; inconclusive = small, poorly fitted or top-dose-only effect; inactive = no such curve, though single readings can be large or run the other way;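 further: on the % scale 0 is the no-effect control and ±100 the full control effect; nearly all actives have a fitted effect of over 50% in size; the assay follows cell death caused by Vpr and the record does not say whether a fall means rescue or toxicity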
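Fission yeast RE007 carrying one integrated HIV-1 vpr copy, seeded at OD 0.01 in PMG+AL medium with 23 nL pinned compound. Grown 24 h at 30 degrees; viability read by BacTiter-Glo luminescence after 5 min.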
Marburg entry inh: inhibitors of Marburg virus binding or cell entry. Potency, µM (titrated, usually from 37.8 µM), inactives show at the highest dose activity change, negative = inhibition, hits mostly inhibitors. actives 1.8% (n = 300,000). Marburg virus pseudotyped entry inhibition, cell reporter; control for the full effect not named in the record; about a third of the inactives were read at about 46 µM; active = well fitted inhibition curve with a large enough effect; inconclusive = small, poorly fitted or top-dose-only effect, or effect the other way; inactive = flat fitted curve, though single readings scatter; tested in HEK293 cells; about a fifth of its hits are not listed in these tables; further: on the % scale 0 is the no-effect control and ±100 the full control effect; luciferase read-out
Cruzain noTriton: cruzain (T. cruzi) inhibition without detergent; P25779; purified cruzain, Z-FR-AMC fluorescence, no detergent; Potency, µM, for the others: max response, negative = inhibition, hits mostly inhibitors; actives 2.3% (n = 200,000); AID 1476;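 further: plate controls were enzyme without inhibitor for no effect and buffer without enzyme for full effect; nearly all actives have a fitted effect of over 40% in size; top concentration of the series not given in the record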
Target sequence (P25779 123-467 limits assumed): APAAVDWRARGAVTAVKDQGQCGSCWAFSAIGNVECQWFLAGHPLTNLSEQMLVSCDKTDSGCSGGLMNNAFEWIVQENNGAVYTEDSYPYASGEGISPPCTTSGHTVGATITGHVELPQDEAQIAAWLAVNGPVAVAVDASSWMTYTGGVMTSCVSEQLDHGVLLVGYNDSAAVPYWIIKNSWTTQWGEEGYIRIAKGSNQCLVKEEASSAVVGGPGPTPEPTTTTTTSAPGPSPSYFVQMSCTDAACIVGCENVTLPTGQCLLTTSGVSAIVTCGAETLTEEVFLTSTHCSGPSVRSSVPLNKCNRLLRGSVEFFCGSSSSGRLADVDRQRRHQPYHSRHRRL
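Purified cruzain at 1.5 nM, pre-incubated 15 min with compound at room temperature in 100 mM sodium acetate pH 5.5, 5 mM DTT, 0.00005% Triton X-100. Reaction started with 2 uM Z-FR-AMC; AMC fluorescence increase over 60 s gives rate.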
LASV entry inh: inhibitors of Lassa virus binding or cell entry; Lassa virus pseudotype entry inhibition, cell reporter; control for the full effect not named in the record; Potency, µM (series often up to 37.9 µM), for the others: at the top dose activity change, negative = inhibition, most hits filed as inhibitors; actives 1.2% (n = 300,000); active means well fitted inhibition curve with a large enough effect; inconclusive means small, poorly fitted or top-dose-only effect, or effect the other way; inactive means flat fitted curve, though single readings scatter; tested in HEK293 cells; further: on the % scale 0 is the no-effect control and ±100 the full control effect; nearly all actives have a fitted effect of over 50% in size; luciferase read-out
Cruzain inh Det: inhibitors of Trypanosoma cruzi cruzain with detergent; actives 0.43% (n = 200,000); Potency, µM, for the others: max response, negative = inhibition, most hits filed as inhibitors; purified cruzain, Z-FR-AMC fluorescence, 0.01% Triton; P25779; AID 1478;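 further: plate controls were neutral wells for no effect and buffer without enzyme for full effect; nearly all actives have a fitted effect of over 40% in size; top concentration of the series not given in the record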
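Read-out: AMC fluorescence (360 nm excitation, 450 nm emission), four reads over 2 min, first-to-third difference used. Conditions: cruzain 1.5 nM, Z-FR-AMC 2 uM, pH 5.5 acetate, 5 mM DTT, 0.01% Triton X-100.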
An asterisk follows results filed as active; u = inconclusive; x = no result given; [ ] = another dose, or the depositor's remark. Unless noted, the call rests on the fitted dose curve; in most records, active means well fitted curve in the direction sought with a large enough effect; inconclusive means small, poorly fitted or top-dose-only effect, or another doubt; inactive means no such curve, though single readings can be large; an effect the other way counts as inactive or inconclusive. Potency means the concentration at half of the fitted maximal effect.

Values run as follows: StopGo reporter	SARS PLpro yeast	LASV entry inh	RE007 growth inh	NS1 inh	Cruzain inh Det	Cruzain noTriton	Marburg entry inh
> CC(C)C(=O)Nc1nnc(SCc2cc(=O)n3ccccc3n2)s1
→ -5.1%	x	14.5%[46.1 µM]	x	x	6.9%	6.2%	x
> Cc1ccc(N2CC(C)Cn3c2nc2c3c(=O)[nH]c(=O)n2C)cc1 (stereo not given)
→ -21.5%	5.0%	x	-3.7%	3.0%	x	x	x
> CC1(C)CC(NC(=O)COc2cc3oc(=O)c4c(c3cc2Cl)CCC4)CC(C)(C)N1
→ -16.4%	-1.9%	x	-13.9%	11.9%	x	x	x
> COc1cccc(NC(=O)N2C3CCCC2CC(NC(C)=O)C3)c1 (stereo not given)
→ -8.1%	0.5%	x	-5.8%	17.3%	x	x	x
> O=C(NC1CC(=O)N(c2ccc(F)cc2)C1)c1cccs1 (stereo not given)
→ -13.1%	x	20.7%[46.1 µM]	x	x	0.1%	8.9%	x
> N#CC1=C(N)Oc2n[nH]c(-c3cccs3)c2C1c1cccnc1 (stereo not given)
→ -27.2%	u	6.3%	1.3%	-1.2%	-3.0%	1.9%	3.2%
> Cc1cc(Br)cc2cn[nH]c12
→ -4.1%	-8.0%	-1.1%	14.9%	x	x	x	-23.3%[46.1 µM]
> COc1ccc(NC(=O)CCNS(=O)(=O)c2cccc3nsnc23)cc1Cl
→ 13.9%	x	24.0%[46.1 µM]	x	x	-3.3%	-13.1%	6.4%[46.1 µM]
> O=C1CSc2ccc(C(=O)O)cc2N1
→ -10.0%	1.3%	-0.1%	4.6%	6.9%	x	x	3.8%
> COc1ccc(CNC(=O)CCCc2nnc3n(C(C)C)c(=O)c4sccc4n23)cc1
→ 2.2%	x	-1.0%[46.1 µM]	x	x	-1.1%	12.1%	x
> CCCN(C(=O)Cn1cc(S(=O)(=O)N2CCN(c3ccccc3F)CC2)c2ccccc2c1=O)c1cccc(C)c1
→ u	x	-17.8%[46.1 µM]	x	x	-1.3%	-8.5%	u
> Cc1ccc(C[n+]2cccc(-c3ccccc3)c2)c(C)c1
→ u	2.4%	u	0.0%	-3.0%	-3.4%	-12.0%	u
> COc1cc(CN2C(=O)C(NC(=O)c3ccco3)(C(F)(F)F)C3=C2CC(C)(C)CC3=O)cc(OC)c1 (stereo not given)
→ -26.8%	-1.5%	-4.4%	-15.1%	-11.4%	-0.3%	u	14.4%
> CCNS(=O)(=O)c1ccc(CCC(=O)NCc2ccccc2)cc1
→ -3.5%	1.0%	-3.5%[46.1 µM]	6.4%	6.4%	x	x	0.2%[46.1 µM]
> CN(C)c1ccc(/C=N/N2CCN(c3ccccn3)CC2)cc1
→ 33.3%[activator]	0.5%	x	-11.6%	-1.9%	x	x	x
> O=C1NC(=O)N(c2cccc(F)c2)C(=O)/C1=C/c1ccc(N2CCOCC2)cc1
→ 12.9%	1.3%	x	-7.3%	0.7%	x	x	x
> CCC(=O)N1c2ccccc2CC1C(=O)NCCc1ccccc1C (stereo not given)
→ -13.9%	x	-10.9%[46.1 µM]	x	x	0.1%	1.5%	x
> COc1cc(O)oc1C=Nc1ccccc1
→ 24.2%	17.3%	u	-2.1%	21.1%	1.8%	-12.3%	17.0%
> COC(=O)C1=C(C)N(Cc2ccc(OC)cc2)C(=O)/C1=C\c1ccco1
→ -15.7%	0.4%	-8.4%[46.1 µM]	-27.0%	-3.6%	x	x	u
> Cc1c(S(=O)(=O)c2cccc(Cl)c2)nnn1-c1cccc(C(F)(F)F)c1
→ -16.6%	x	u	x	x	-8.7%	11.1%	-1.5%[46.1 µM]
> Cc1ccc(CNC(=O)c2ccc(S(=O)(=O)N(C)C)cc2)n1C
→ -15.6%	-1.5%	-9.3%	0.1%	15.0%	x	x	7.6%[46.1 µM]
> Cc1cc(C(=O)COC(=O)c2ccc(N)c([N+](=O)[O-])c2)c(C)n1Cc1ccc2c(c1)OCO2
→ -5.9%	-0.2%	x	-1.9%	-1.1%	x	x	x
> COc1ccc(C(=O)Cn2nc(CNc3ccc(Br)cc3)[n+]3c2CCCCC3)cc1
→ -15.8%	0.2%	-27.1%	5.4%	x	x	x	u
> CCCn1c(NC(=O)c2cccc(C)c2C)nc2ccccc21
→ 34.6%[activator]	u	-23.8%	u	-58.8%	-1.8%	-0.4%	u
> CCCCNC(=S)Nc1ccc2nc(N3CCN(CC)CC3)cc(C)c2c1
→ -17.1%	1.5%	-6.1%[46.1 µM]	-11.3%	-5.5%	x	x	u
> CCOc1ccc(C(F)(F)F)cc1NC(=O)COc1ccc(C(F)(F)F)cc1[N+](=O)[O-]
→ 10.4%	-1.0%	2.4%	3.3%	19.8%	0.7%	u	2.1%
> CSCCC(NS(=O)(=O)c1ccc(Cl)cc1)C(=O)OCC(=O)N1CCCc2ccccc21 (stereo not given)
→ -12.6%	18.7%	-16.8%[46.1 µM]	4.4%	5.0%	-7.1%	10.0%	u
> COc1ccc(-c2nc(-c3cccc(C)c3)nc(N3CCN(C)CC3)c2C#N)cc1
→ u	-1.8%	12.8%	4.3%	-1.2%	5.7%	u	u
> COc1ccc2c(c1)sc(=N)n2C
→ -4.0%	-9.4%	-0.2%	1.6%	-4.2%	x	x	15.1%
> COc1ccccc1NC(=O)CSc1nc2c(sc3ccccc32)c(=O)n1CCN(C)C
→ -9.4%	-10.4%	-12.0%	-25.6%	x	x	x	u
> CCOc1ncccc1C(=O)OCC(=O)Nc1cc(S(=O)(=O)N2CCCCC2)ccc1Cl
→ u	x	-8.9%	5.0%	x	x	x	u
> CN1CCN(CCCN(Cc2cccs2)C(=S)Nc2ccc(Cl)cc2)CC1
→ 27.3%	3.5%	u	-0.8%	x	x	x	u
> COCCn1c(=NC(=O)c2ccc(S(=O)(=O)N3CCOCC3)cc2)sc2cc(S(N)(=O)=O)ccc21
→ -17.2%	-0.2%	24.6%[46.1 µM]	-16.1%	5.5%	x	x	-27.7%[46.1 µM]
> COc1ccccc1OCC(=O)NNC(=O)c1cnccn1
→ 4.3%	0.2%	-1.9%	3.7%	5.6%	3.3%	-3.8%	6.1%
> Cc1onc(-c2ccccc2)c1C(=O)OCc1nnc(-c2ccccc2)o1
→ -11.8%	-5.1%	-9.6%	1.7%	x	x	x	-7.1%[46.1 µM]
> NC(=O)c1ccc(NC(=O)c2cncn2-c2ccccc2)cc1
→ 8.9%	3.5%	-25.1%	-6.5%	u	x	x	15.4%[46.1 µM]
> CCCNC(=O)COC(=O)/C=C/c1ccco1
→ -16.8%	-25.4%	4.0%	2.8%	-2.4%	-7.1%	-5.9%	u
> Cc1csc2nc(COC(=O)c3cccc(NC(=O)COc4ccc(Cl)cc4)c3)cc(=O)n12
→ -13.5%	x	u	x	x	-0.5%	-2.4%	x
> Cc1nc(CNS(=O)(=O)c2ccc3c(c2)OCCO3)cs1
→ x	0.1%	-17.1%	1.9%	1.5%	-0.8%	-12.0%	1.6%
> C/C(=N\N1CCN(C)CC1)c1ccc(Cl)c(Cl)c1
→ 25.5%	-0.1%	15.9%	20.6%	x	x	x	u
> COc1ccc(Cl)cc1NC(=O)Cn1c(=O)n2nc(C)nc2c2ccccc21
→ -17.3%	-0.5%	x	2.0%	-17.9%	-2.8%	u	x
> Cc1ccc(S(=O)(=O)Oc2ccc(N3C(=O)C4C5CCC(C5)C4C3=O)cc2)cc1 (stereo not given)
→ 0.0%	1.3%	-8.1%[46.1 µM]	6.5%	x	x	x	u
> CCN1CCN(CCCNC(=O)c2ccc3c(Cl)c4c(nc3c2)CCCC4)CC1
→ -17.0%	-3.6%	u	-9.7%	-11.2%	x	x	u
> COc1cc(C2CC(=O)N3CN(Cc4ccccc4)CSC3=C2C#N)ccc1OCc1ccccc1 (stereo not given)
→ u	1.4%	x	-5.5%	1.7%	-26.6%	15.8µM*	-0.4%
> COc1ccc(C(=O)Nc2cc(C)c3c(=O)oc4ccccc4c3n2)cc1
→ -15.7%	-0.4%	x	-10.5%	13.7%	0.6%	-5.5%	x
> CNC(=O)CCCN1C(=O)c2ccccc2Sc2ncccc21
→ -8.6%	-0.1%	x	-0.1%	4.3%	x	x	x
> Cc1nn(CCC(=O)N2CCN(S(=O)(=O)c3ccc(Cl)cc3)CC2)c(C)c1C
→ -12.7%	17.4%	0.2%	6.7%	-10.4%	x	x	0.6%[46.1 µM]
> COc1ccc(C(=O)Nc2nc3ccc(S(C)(=O)=O)cc3s2)cc1OC
→ 6.6%	-0.4%	-6.7%	-0.1%	x	x	x	u
> Cn1c(=O)oc2cc(S(=O)(=O)NCCN3CCN(c4ccccc4F)CC3)ccc21
→ -15.2%	2.9%	x	-1.6%	-0.4%	-1.1%	-2.9%	x
> O=C(CSc1ncnc2nc[nH]c12)Nc1nnc(SCc2ccc(Cl)c(Cl)c2)s1
→ -18.9%	-0.2%	3.9%[46.1 µM]	8.7%	7.5%	x	x	-7.3%[46.1 µM]

Continued.
Values run as follows: StopGo reporter	SARS PLpro yeast	LASV entry inh	RE007 growth inh	NS1 inh	Cruzain inh Det	Cruzain noTriton	Marburg entry inh
> CCC(C)n1c(SCC(=O)Nc2ccccc2C(F)(F)F)nc2ccsc2c1=O (stereo not given)
→ u	-15.8%	-17.7%	5.1%	-18.0%	-2.3%	10.8%	u
> CCOC(=O)c1c(NC(=O)CNC2CCCc3ccccc32)sc(C(N)=O)c1C (stereo not given)
→ u	0.9%	-5.8%	0.2%	x	x	x	-29.8%
> O=C(c1cccc(OC2CCN(Cc3ccc(F)cc3Cl)CC2)c1)N1CCCC1
→ u	-10.0%	6.2%	-9.7%	-36.4%	x	x	-0.9%
> Cc1cc(NC(=O)Cn2cnc3c(nnn3-c3cccc(F)c3)c2=O)no1
→ 3.5%	5.0%	-3.6%[46.1 µM]	24.4%	x	x	x	-9.0%[46.1 µM]
> CC(C)NC(=O)NNC(=O)Cn1nnc(-c2cccc(Cl)c2Cl)n1
→ 4.2%	0.9%	u	9.6%	7.2%	x	x	0.3%[46.1 µM]
> COc1ccc(/C=C/C(=O)NC(=S)Nc2ccc(S(=O)(=O)Nc3nccnc3OC)cc2)cc1
→ 0.0%	22.5%	3.5%	-1.8%	u	-9.2%	u	u

High-throughput results from PubChem BioAssay.
